Screens as filed in PubChem BioAssay.
Lassa entry inh – qHTS for Inhibitors of binding or entry into cells for Lassa Virus; Lassa virus pseudotype entry inhibition, cell reporter; control for the full effect not named in the record; Potency, µM (series often up to 37.9 µM), inactives show top-dose activity change, negative = inhibition, actives largely listed as inhibitors; 300,000 compounds, 1.2% hits; AID 540256, 2011; active means well fitted inhibition curve with a large enough effect; inconclusive means small, poorly fitted or top-dose-only effect, or effect the other way; inactive means flat fitted curve, though single readings scatter; tested in HEK293 cells; note: % is set by controls: 0 for no effect and ±100 for the full control effect; nearly all actives have a fitted effect of over 50% in size; luciferase read-out
Cruzain inh noDet – qHTS Assay for Promiscuous and Specific Inhibitors of Cruzain (without detergent) | Cruzipain (Trypanosoma cruzi), P25779 | purified cruzain, Z-FR-AMC fluorescence, no detergent | Potency, µM, inactives show max response, negative = inhibition, actives largely listed as inhibitors | 200,000 compounds, 2.3% hits; active = well fitted curve in the direction sought with a large enough effect; inconclusive = small, poorly fitted or top-dose-only effect, or another doubt; inactive = no such curve, though single readings can be large; an effect the other way counts as inactive or inconclusive;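 note: plate controls were enzyme without inhibitor for no effect and buffer without enzyme for full effect; nearly all actives have a fitted effect of over 40% in size; top concentration of the series not given in the record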
Target sequence (P25779 123-467 limits assumed): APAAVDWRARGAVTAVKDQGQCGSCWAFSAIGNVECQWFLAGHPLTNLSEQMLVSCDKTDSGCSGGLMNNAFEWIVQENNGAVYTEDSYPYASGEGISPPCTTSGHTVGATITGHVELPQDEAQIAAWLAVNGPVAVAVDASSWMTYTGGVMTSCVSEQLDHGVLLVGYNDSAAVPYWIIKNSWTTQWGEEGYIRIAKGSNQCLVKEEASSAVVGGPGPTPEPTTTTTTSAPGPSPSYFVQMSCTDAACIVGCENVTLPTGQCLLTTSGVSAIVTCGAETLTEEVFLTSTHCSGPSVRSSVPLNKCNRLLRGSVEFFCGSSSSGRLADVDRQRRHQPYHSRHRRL
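Detergent-free condition (0.00005% Triton X-100) in acetate buffer pH 5.5 with DTT. 1.5 nM enzyme and compound were pre-mixed 15 min, then 2 uM Z-FR-AMC substrate added; reaction progress from fluorescence change between first and third reads (60 s).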
Cruzain inh Det – qHTS Assay for Promiscuous and Specific Inhibitors of Cruzain (with detergent) | Potency, µM, for inactives: max response, negative = inhibition, most hits filed as inhibitors | Cruzipain (Trypanosoma cruzi), P25779 | purified cruzain, Z-FR-AMC fluorescence, 0.01% Triton | 200,000 compounds, 0.43% hits; active = well fitted curve in the direction sought with a large enough effect; inconclusive = small, poorly fitted or top-dose-only effect, or another doubt; inactive = no such curve, though single readings can be large; an effect the other way counts as inactive or inconclusive;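 note: plate controls were neutral wells for no effect and buffer without enzyme for full effect; nearly all actives have a fitted effect of over 40% in size; top concentration of the series not given in the record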
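15 min RT preincubation of 1.5 nM cruzain with compound, then 2 uM Z-FR-AMC added; kinetic AMC fluorescence, 60 s delta. Triton X-100 0.01%, pH 5.5.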
SARS PLpro yeast – qHTS of Yeast-based Assay for SARS-CoV PLP. S. cerevisiae expressing SARS-CoV PLpro, growth rescue; control for the full effect not named in the record. Potency, µM (doses to about 32.9 µM), inactives show top-dose activity, positive = growth rescue. 330,000 compounds, 0.19% hits; note: 0% is about no effect; nearly all actives have a fitted effect of over 55% in size; growth read by luminescence after 48 h
StopGo reporter – High Throughput Screening for Foot and Mouth Disease Virus Antivirals; human cells with a luciferase reporter of 2A StopGo recoding; control for the full effect not named in the record; 410,000 compounds, 1.2% hits; Potency, µM (highest dose often 57.9 µM), for the others: at the top dose signal change, negative = less light; active = well fitted falling curve with a large enough effect; inconclusive = small, poorly fitted or top-dose-only effect; inactive = no such curve, though single readings can be large or run the other way; tested in HEK293T cells; note: % is set by controls: 0 for no effect and ±100 for the full control effect; nearly all actives have a fitted effect of over 45% in size; luciferase light after 4 h
RE007 growth inh – qHTS Assay for Inhibitors of the HIV-1 protein Vpr | S. pombe RE007 Vpr strain, BacTiter-Glo ATP luminescence, 24 h; control for the full effect not named in the record | AID 651644, 2012 | Potency, µM (titrated, usually from 92.2 µM), without a hit: top-dose activity change, negative = less growth | 360,000 compounds, 0.21% hits; active = well fitted falling curve with a large enough effect; inconclusive = small, poorly fitted or top-dose-only effect; inactive = no such curve, though single readings can be large or run the other way;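 note: % is set by controls: 0 for no effect and ±100 for the full control effect; nearly all actives have a fitted effect of over 50% in size; the assay follows cell death caused by Vpr and the record does not say whether a fall means rescue or toxicity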
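Fission yeast RE007 carrying one integrated HIV-1 vpr copy, seeded at OD 0.01 in PMG+AL medium with 23 nL pinned compound. Grown 24 h at 30 degrees; viability read by BacTiter-Glo luminescence after 5 min.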
NS1 function inh – qHTS Assay for Inhibitors of Influenza NS1 Protein Function. S. cerevisiae slowed by influenza A NS1, growth recovery by OD600. Potency, µM (titrated, usually from 46.1 µM), for inactives: top-dose activity, positive = more growth. 270,000 compounds, 0.4% hits; note: actives are rising curves; nearly all actives have a fitted effect of over 50% in size
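Compounds were scored for reversing the slow growth caused by influenza A NS1 in S. cerevisiae, measured by optical density at 600 nm. Assay medium contained 2% galactose at pH 6.0; NS1-free yeast of the same strain were the positive control.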
MARV entry inh – qHTS for inhibitors of binding or entry into cells for Marburg Virus | Marburg virus pseudotyped entry inhibition, cell reporter; control for the full effect not named in the record; about a third of the inactives were read at about 46 µM | Potency, µM (top dose mostly 37.8 µM), for the others: at the highest dose activity change, negative = inhibition, actives largely listed as inhibitors | 300,000 compounds, 1.8% hits | AID 540276, 2011; active = well fitted inhibition curve with a large enough effect; inconclusive = small, poorly fitted or top-dose-only effect, or effect the other way; inactive = flat fitted curve, though single readings scatter; tested in HEK293 cells; about a fifth of its hits are not listed in these tables; note: % is set by controls: 0 for no effect and ±100 for the full control effect; luciferase read-out
Starred values were filed as active, the others as inactive; ? = inconclusive; . = no result given; & = joins results of further samples; [ ] = remark or other dose. Unless noted, calls come from the whole dose curve; as a rule, active means well fitted rising curve with a large enough effect; inconclusive means small, poorly fitted or top-dose-only effect; inactive means no such curve, though single readings can be large or run the other way. Potency is the fitted concentration of half-maximal effect. Compounds as they come; any-hit rate near 4.5%.

Below each compound – Lassa entry inh, StopGo reporter, MARV entry inh, Cruzain inh noDet, RE007 growth inh, NS1 function inh, Cruzain inh Det, SARS PLpro yeast
- CC(=O)N/C(=C\c1ccc(F)cc1)C(=O)OCc1ccccc1
 : 2%, 0%, ?, ., -4%, 4%, ., 0%
- COc1ccc(NC2C=CS(=O)(=O)C2)cc1 (stereo not drawn)
 : -14%, -27%, -7%, 4%, 8%, 14%, 0.6%, .
- CCn1c(=O)c(-c2nc3ccccc3[nH]2)c(O)c2ccccc21
 : 16%[46.1 µM], 10%, -19%[46.1 µM], ., -5%, ., ., -1%
- CNC(=O)c1[nH]cnc1C(=O)Nc1ccc(F)cc1
 : ., 0%, ., ., -11%, 1%, ., 0%
- COc1cc(NC(=O)CCc2nnc3ccc(N4CCN(C)CC4)nn23)cc(OC)c1
 : ., 0%, ., ., -5%, -4%, ., 1%
- COc1cccc2c1OC1(CCN(C(C)C)CC1)N1N=C(c3cccnc3)CC21 (stereo not drawn)
 : ?, 8%, -5%[46.1 µM], ., 6%, 21%, ., 0%
- Cc1nc2c(C(=O)NCc3ccccc3)cnn2c(C)c1Cc1ccc(F)cc1
 : -24%[46.1 µM], -1%, ., 2%, ., ., 0.6%, .
- CC(C)C/C(=N/O)c1c[nH]c2ccccc12
 : ?, -16%, 5%, 4%, -22%, -3%, 10%, ?
- O=C(Nc1cc(Cl)ccc1Oc1ccccc1)c1ccccc1F
 : -1%, -1%, -2%, -16%, 7%, -10%, -7.5%, -25%
- COc1cc(S(=O)(=O)n2cnc(C)c2)ccc1Cl
 : -2%, -5%, 5%[46.1 µM], ., 13%, -2%, ., 1%
- COc1ccc(C(=O)C[n+]2cccc(C(N)=O)c2)cc1
 : ., -21%, ., ., 3%, 2%, ., 1%
- Clc1ccc(Nc2nc3ccccc3n3nnnc23)cc1
 : -8%, 14%, ?, -8%, 2%, 2%, -0.6%, -10%
- CCn1c(SC(C)C(=O)NC2CCCc3ccccc32)nnc1-c1cccs1 (stereo not drawn)
 : ?, 7%, -7%, -5%, 17%, 0%, 0.4%, 5%
- COc1ccc(CCC(=O)OCC(=O)N(CC(C)C)c2c(N)n(Cc3ccccc3)c(=O)[nH]c2=O)cc1
 : ?, -9%, ?, ., 5%, ., ., 0%
- COc1cc(NC(=O)CSc2nc3ccccc3n2-c2ccccc2)c(C)cc1[N+](=O)[O-]
 : -6%, -24%, ?, 7.9µM*, ., 22µM*, 0.8%, 13%
- CCN(CC)CCCNC(=O)c1oc2c(c1C)-c1nn(Cc3ccc(Cl)cc3)cc1CC2
 : -19%[46.1 µM], -27%, ., 19%, ., ., -5.2%, .
- COc1ccccc1N1CCN(C(=O)CSc2nc(-c3ccco3)cc(C(F)(F)F)n2)CC1
 : -21%, ?, -26%, ?, 16%, 2%, -15%, 0%
- COc1cc(C2=NOC(C(=O)N3CCCc4ccccc43)C2)cc(OC)c1OC (stereo not drawn)
 : -12%, -7%, -16%, ?, 5%, -6%, -3.3%, -5%
- CCCCN(C)C(=O)c1c[nH]c2ccc(S(=O)(=O)N3CCOCC3)cc2c1=O
 : ., -8%, ., 3%, -2%, -5%, -3.4%, -26%
- Cc1c(CCC(=O)NCc2ccc(F)cc2)c(=O)oc2cc(O)ccc12
 : 3%[46.1 µM], -15%, 18%[46.1 µM], ?, ., ., ?, .
- CC1CCC(C(=O)NNC(=O)c2cc(-c3ccco3)[nH]n2)CC1 (stereo not drawn)
 : -11%, -1%, 6%[46.1 µM], ., 5%, ., ., 0%
- COc1ccc(F)cc1C(=O)C1CCCN(C(=O)c2ccccc2N(C)C)C1 (stereo not drawn)
 : ., -27%, ., ., 2%, 0%, ., -4%
- COc1ccc(CCN2CC(C(=O)OCc3ccccc3Cl)CC2=O)cc1OC (stereo not drawn)
 : -17%, -24%, -1%[46.1 µM], ., 8%, ., ., .
- N=c1sccn1CC(=O)Nc1cccc2ccccc12
 : 8%, 3%, 19%, -3%, 4%, 16%, 6.8%, -1%
- Cc1ccc(Oc2nc3ccccn3c(=O)c2/C=C(\C#N)C(=O)NC2CCS(=O)(=O)C2)cc1 (stereo not drawn)
 : ., ?, ., ., 12%, -10%, ., 0%
- CCOC(=O)N1CCN(c2ccc(Cl)cc2)CC1
 : 8%, -18%, ?, -6%, -5%, -7%, -2.6%, -7%
- O=C(CCCN1C(=O)c2ccccc2C1=O)NCc1ccc(F)cc1
 : ., -11%, ., ., -8%, -43%, ., 1%
- Cc1cc(C)c(C#N)c(N2CCCC2)n1
 : 4%, 4%, 2%, 1%, -23%, ?, -2.4%, 0%
- O=S(=O)(Cc1ccccc1)N1CCNCC1
 : 15%[46.1 µM], 4%, ?, ., 11%, 7%, ., -3%
- COC(=O)c1cc(Cl)ccc1NC(=O)CSc1ncc(S(=O)(=O)c2ccc(Br)cc2)c(=O)[nH]1
 : 4%[46.1 µM], -8%, ?, ?, ., ., 25µM*, .
- CCOC(=O)NC(=O)/C(C#N)=C\Nc1ccc(Cl)cc1Cl
 : -2%[46.1 µM], -10%, -2%[46.1 µM], ., 10%, ., ., 0%
- CN(C)S(=O)(=O)N(CC(=O)NCCSCc1ccccc1)c1ccccc1
 : ?, -9%&8%, 0%&8%[46.1 µM], -1%, 7%, ., -2.6%, -1%
- NS(=O)(=O)c1ccc(CCNC(=O)CCCCCn2c(=S)[nH]c3ccc(Br)cc3c2=O)cc1
 : -9%[46.1 µM], ?, -28%[46.1 µM], ., -1%, ., ., -1%
- C/C=C/CSc1nc2c(c(=O)[nH]c(=O)n2C)n1CCC
 : -24%, -31%, -12%[46.1 µM], 11%, -10%, -3%, 2.5%, 3%
- Cc1cccc(C)c1N(CC(=O)NC1CCCCC1)C(=O)c1csnn1
 : 2%, 16%, -5%[46.1 µM], ., 1%, 1%, ., 16%
- COC(=O)c1ccc2c(=O)n(Cc3ccc(C(=O)NC(C)C)cc3)c(=S)[nH]c2c1
 : ?, 25%, ?, ., -4%, ., ., 0%
- CCOc1cc(S(=O)(=O)NC2CC2)c(OCC)cc1-n1cnnn1
 : -1%, 31%[activator], 3%, -3%, 2%, 5%, 1.8%, -8%
- CC(C)(O)/C=C1/Oc2ccccc2C1N1CCCCC1 (stereo not drawn)
 : 0%, -2%, 0%, 16%, 3%, 0%, -1.1%, -2%
- CCn1c(=O)c(=O)[nH]c2c(=O)oc3ccc(S(=O)(=O)Nc4ccccc4)cc3c21
 : -6%[46.1 µM], 10%, 8%[46.1 µM], ., -7%, -11%, ., 4%
- COCCCn1c(SCC(=O)O)nc2cc(OC)c(OC)cc2c1=N
 : -8%[46.1 µM], 15%, 18%[46.1 µM], ., -25%, 1%, ., 0%
- CC(=O)Nc1sc2c(c1C#N)CCN(Cc1ccccc1)C2
 : ., 0%, ., ., -3%, 2%, ., -3%
- O=C(O)/C(=C1\OC(=O)c2ccccc21)c1ccccc1
 : 2%, -4%, 5%[46.1 µM], -16%, -6%, 9%, -2.7%, -3%
- CCc1ccccc1NC(=O)c1cccc(NC(=O)/C=C/c2ccco2)c1
 : -7%, -14%, -24%, 7%, -12%, 15%, -2.1%, -18%
- CCC(CC)C(=O)N1c2ccc(F)cc2CCC1C (stereo not drawn)
 : 13%, -13%, 2%, 10%, 0%, -65%, -3.4%, 12%
- O=C(Nc1nc2ccccc2s1)c1cc(-c2ccco2)nc2ccccc12
 : 1%, ?, 0%, -26%, -8%, 0%, -12%, 6%
- O=C(Nc1ccccc1C(=O)N1CCCC1)C1COc2ccccc2O1 (stereo not drawn)
 : -2%, 12%, 1%[46.1 µM], ., 3%, ., ., 1%
- Cc1cc(-c2nnc(SCC(=O)Nc3ccc(C)c(C)c3)n2N)n[nH]1
 : 9%[46.1 µM], 4%, -23%[46.1 µM], ., 2%, -7%, ., 1%
- COc1ccc(OCCCC(=O)NC(C)c2ccccc2)cc1 (stereo not drawn)
 : -15%, -19%, 10%, -2%, -2%, -12%, -8.8%, -19%
- Cc1nc2nc(C)c(CCC(=O)N3CCN(c4ccccn4)CC3)c(C)n2n1
 : 17%, 18%, 3%, -2%, -8%, 2%, 1.9%, 3%
- COc1ccc(-c2cnnc(N/N=C/c3c(C)nn(-c4ccccc4)c3Cl)n2)cc1
 : ?, -22%, ?, 6%, 3%, ?, -7.7%, 11%
- COc1ccc(C2=NOC(C(=O)N3CCN(c4ccccc4OC)CC3)C2)cc1 (stereo not drawn)
 : ., ?, 6%, ?, 2%, -15%, 0.6%, -2%
- Cc1ccc(S(=O)(=O)N2CCC(C(=O)OCC(=O)N3CC(=O)Nc4ccccc43)CC2)cc1
 : -3%, -15%, -6%&-6%, 0%, 8%, -16%, -4.1%, 1%
- CCCc1ccc(OCc2ccc(C(=O)Nc3ccccc3C(=O)OC)o2)cc1
 : ?, 39%[activator], 28%[46.1 µM], ?, ., ., -5.0%, .
- CCN(CC)CCCCCC(=O)Nc1ccccc1C(=O)Nc1ccccc1
 : ?, -13%, 13%, ., 4%, -1%, ., 1%
- COCCNC(=O)CSc1nc2cc3c(cc2c(=O)n1CCCCCC(=O)NCCc1ccc(OC)c(OC)c1)OCO3
 : 9%[46.1 µM], -6%, ., 1%, ., ., 2.6%, .
- CCOc1ccc(C(C(=O)NCC2CCCO2)N(Cc2cccc(OC)c2)C(=O)c2snc(C(N)=O)c2N)cc1 (stereo not drawn)
 : ., 3%, ?, ., -11%, -9%, ., -4%
- FC(F)(F)c1cc(-c2cccs2)nc2cc(-c3cccs3)nn12
 : ., -7%, ., ., 7%, 3%, ., -7%
- CC(=O)Nc1cccc(NC(=O)CSc2nc3c(c(=O)n(C)c(=O)n3C)n2C)c1
 : 8%, -16%, 1%[46.1 µM], ., 7%, 14%, ., 7%
